KCNQ2 pot: potentiators of rat KCNQ2 potassium channel; O88943; CHO-K1 KCNQ2, FluxOR thallium flux fluorescence; active compounds read high; B-score at 10 µM; actives 0.54% (n = 310,000); AID 2239;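 active = fluorescence ratio B-score at least 3 SD of library B-scores, with initial fluorescence B-score within 3 SD, cut at about 5.3 in these data; same plate scores as AID 2156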;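 also: B-score of peak minus minimum over baseline fluorescence ratio after K+ and Tl+ stimulus; positive B-score means potentiation of KCNQ2 with more thallium influx and brighter signal; only the inactives scoring about 0 or higher are listed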
Target sequence (O88943 whole entry, looked up): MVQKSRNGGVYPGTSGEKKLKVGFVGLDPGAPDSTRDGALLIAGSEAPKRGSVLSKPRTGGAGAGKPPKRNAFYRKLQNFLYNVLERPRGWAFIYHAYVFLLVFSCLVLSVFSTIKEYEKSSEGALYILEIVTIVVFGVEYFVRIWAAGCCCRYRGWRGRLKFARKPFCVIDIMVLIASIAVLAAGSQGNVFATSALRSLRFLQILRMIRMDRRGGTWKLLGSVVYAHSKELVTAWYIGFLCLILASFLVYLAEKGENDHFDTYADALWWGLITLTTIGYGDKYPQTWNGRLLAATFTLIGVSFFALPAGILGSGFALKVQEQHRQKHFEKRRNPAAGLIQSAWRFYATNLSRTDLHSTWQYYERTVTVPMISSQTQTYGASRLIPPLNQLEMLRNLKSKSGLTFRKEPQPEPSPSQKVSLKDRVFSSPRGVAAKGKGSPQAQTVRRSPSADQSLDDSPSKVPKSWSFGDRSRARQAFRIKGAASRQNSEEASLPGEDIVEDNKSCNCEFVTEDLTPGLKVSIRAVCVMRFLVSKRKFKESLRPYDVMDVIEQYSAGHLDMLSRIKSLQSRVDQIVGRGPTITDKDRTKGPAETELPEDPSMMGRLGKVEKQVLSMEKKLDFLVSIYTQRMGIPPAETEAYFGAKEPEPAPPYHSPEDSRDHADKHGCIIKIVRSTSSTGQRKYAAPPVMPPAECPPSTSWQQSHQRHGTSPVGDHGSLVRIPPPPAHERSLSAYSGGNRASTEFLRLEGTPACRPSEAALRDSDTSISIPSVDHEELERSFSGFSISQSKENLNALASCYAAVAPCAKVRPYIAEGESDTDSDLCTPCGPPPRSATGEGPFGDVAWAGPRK
KCNQ2 pot baseline: recorded beside KCNQ2 pot, whose call it bears; B-score; compound at 10 µM; measured here: initial fluorescence intensity artifact check;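 brightness before thallium and not channel activity; 0 = typical well and far values either way flag optical interference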
Numbers without * were called inactive. Not all compounds are listed; the hit share may differ from the screen's.

Each structure is followed by: KCNQ2 pot	KCNQ2 pot baseline
1. CC(C)(CNC(=O)C1CCCC1)CNC(=O)C1CCCC1
  0.01	-0.22
2. CCN1C(=O)N[C@@H](c2ccc(Br)cc2)C(C(C)=O)=C1C
  1.1	-1.3
3. CCOc1ccccc1OCCCNCc1ccccc1
  3.5	0.07
4. CCOn1c(=O)c(-c2ccc(Cl)cc2)[n+]([O-])c2ccccc21
  0.24	-0.1
5. COc1ccc(S(=O)(=O)N2CCC(C(=O)NCc3cccc(OC)c3)CC2)cc1
  0.53	2.8
6. COC(=O)CCCC1=CC2=C(c3ccccc3)C(=O)C(C)(OC(=O)C3CCCC3)C(=O)C2=CN1CCc1ccccn1 (stereo not given)
  1.8	-0.27
7. Cc1onc(-c2ccccc2)c1C(=O)N1CCN(C(=O)c2ccco2)CC1
  0.61	0.35
8. Cc1ccc(CN2CCC(CNS(=O)(=O)c3ccc(-c4ccc(=O)[nH]n4)s3)CC2)cc1
  1	-0.91
9. Cn1ccc(C(=O)Nc2ccc(Br)cc2Br)n1
  0.05	1.4
10. COc1ccnc(-n2cccc2C=O)c1C#N
  0.22	0.35
11. COc1cccc(/C=N/Nc2ccc([N+](=O)[O-])cc2)c1O
  1	1.8
12. COc1ccc(C(=O)NN/C(C)=C/C(=O)C(F)(F)C(F)(F)C(F)(F)F)cc1
  10*	1.1*
13. C/C(O)=C/c1nc2ccccc2[nH]c1=O
  0.16	0.83
14. O=C(COC(=O)c1cccc(C(=O)OCC(=O)NC2CC2)n1)NC1CC1
  0.49	-0.28
15. Cc1ccccc1C(=O)c1cccn1CC(=O)NC(C)c1ccccc1 (stereo not given)
  2.5	-0.74
16. Cc1ccccc1C(=O)NC1CCN(C(=O)NCc2ccccc2)CC1
  0.76	1.2
17. Cc1ccc(S(=O)(=O)n2nc(OC(=O)c3c(F)cccc3Cl)cc2N)cc1
  0.5	0.67
18. Cc1sc(NC(=O)CN(Cc2ccccc2)C(=O)C(C)C)c(C(N)=O)c1C
  2.2	0.32
19. Cc1ccc(C2NC(=NCc3ccccc3)Nc3nc(C)cc(=O)n32)cc1 (stereo not given)
  0.49	-0.08
20. CCN(CC)CCCn1c(=S)[nH]c2cc(C(=O)OC)ccc2c1=O
  0.24	-1.6
21. CCOc1ccccc1/C=N/Nc1nc(C)cc(=O)[nH]1
  0.74	0.48
22. COc1ccc(C(=O)N/C(=C\c2ccccc2)C(=O)Nc2cccc(C(=O)O)c2)cc1
  0.96	-1.3
23. O=C(C1CCC(N2C(=O)C3CC=CCC3C2=O)CC1)N1CCCCC1 (stereo not given)
  0.8	-0.87
24. CCOC(=O)C1=C(C)NC(=O)NC1c1ccc(OCC(=O)N2CCCCC2)cc1 (stereo not given)
  0.63	1.7
25. COCCCn1c(=S)[nH]c2ncccc2c1=O
  2.1	0.07
26. COC(=O)CNC(=O)C(C)(C)Oc1ccc(Cl)cc1
  0.35	2.2
27. CC(=O)N1CCN(c2ccc(NC(=O)/C=C/c3ccccc3)cc2)CC1
  0.02	0.28
28. CCN(CC)CCn1c(N)c(S(=O)(=O)c2ccccc2)c2nc3ccccc3nc21
  0.59	0.2
29. COc1ccc(CC(=O)N/N=C/C=C/c2ccc3c(c2)OCO3)cc1OC
  1.6	-0.06
30. CCCc1ccc2oc(C(=O)N3CCNC(=O)C3CC(=O)OC)c(C)c2c1 (stereo not given)
  2.9	-1.1
31. O=C(CC1OC(=O)c2ccccc21)Nc1cc(Cl)ccc1N1CCCC1 (stereo not given)
  0.63	1
32. CN(C)c1ccc(C2N(C(=O)N3CCOCC3)CCN2S(=O)(=O)c2ccccc2)cc1 (stereo not given)
  1.5	-0.29
33. Cc1ccc(CN2CCS(=O)(=O)CC2)o1
  1.6	0.2
34. CCO/N=C/C1=C(O)C(C(=O)OC)C(C)(C)CC1=O (stereo not given)
  0.78	-0.75
35. Cc1cccc(CN2CCN(Cc3nc4c(s3)CCCC4)CC2CCO)n1 (stereo not given)
  1	-2
36. COc1ccc(CCC(C)NC(=O)Cc2ccc(OC)c(OC)c2)c(OC)c1 (stereo not given)
  0.2	-1.3
37. NC(=O)CC(NC(=O)c1ccc(Br)cc1)c1ccc(N2CCC(Cc3ccccc3)CC2)c([N+](=O)[O-])c1 (stereo not given)
  2.4	-0.37
38. NN1C(=O)c2cccc3c(C(=O)O)ccc(c23)C1=O
  0.62	-0.12
39. Cc1ccc2c(C)c(C(=O)Nc3c(C)n(C)n(-c4ccccc4)c3=O)oc2c1
  2.1	-0.25
40. NNC(=O)CSc1nnc(-c2ccccc2)n1-c1ccccc1
  0.85	-0.72
41. C=CCn1c(SCc2nc3sc(C(=O)O)c(C)c3c(=O)[nH]2)nnc1-c1ccc(C(C)(C)C)cc1
  1.5	2
42. COc1ccc(C(=O)Nc2nnc(Cc3ccc(OC)c(OC)c3)s2)cc1
  1.3	-0.34
43. COC(=O)c1ccc2[nH]c3cccc(/C(=C/c4ccccc4)c4ccccc4)c3c2c1
  0.49	1
44. COc1ccc(C(=O)NCC2CCCO2)cc1OC (stereo not given)
  0.31	-0.22
45. COC(=O)CNC(=O)c1ccccc1F
  0.53	-0.63
46. CCOC(=O)c1ccc(NC(=O)c2cccc(C)c2[N+](=O)[O-])cc1
  0.58	-0.74
47. COc1ccccc1C(=O)Nc1ccccc1C(=O)NCc1ccco1
  0.91	0.55
48. CC1(C(=O)OCC(=O)Nc2nnc(-c3ccccc3)o2)CC1(Cl)Cl (stereo not given)
  0.14	0.28
49. O=C(NC(Nc1nc2ccc([N+](=O)[O-])cc2s1)(C(F)(F)F)C(F)(F)F)c1cccnc1
  1.3	0.95
50. CN(C)C(=O)c1nc2ccc(Cl)cn2c1CNCc1ccccc1OC(F)(F)F
  0.05	-0.93

Later entries:
Each structure is followed by: KCNQ2 pot	KCNQ2 pot baseline
51. COc1cccc(C2=CC(c3ccc(OC)c(OC)c3)NC(=S)N2)c1 (stereo not given)
  2.5	-1.4
52. CCc1cc2c(=O)c(-c3cscn3)coc2cc1O
  0.56	0.45
53. Cc1sc2c(c1C)c(=O)n(-c1ccccc1)c(=O)n2CC(=O)NCC1CCCO1 (stereo not given)
  0.55	0.02
54. Cc1cccc(NC(=S)N2CCOCC2)c1C
  0.61	2.3
55. C/C(=N\NC(=O)Cc1ccccc1)c1ccc(Br)s1
  0.86	0.13
56. CC1(c2cccc(Br)c2)NC(=O)NC1=O (stereo not given)
  1.1	0.44
57. CC1Oc2ccccc2N(CC(=O)NCc2cccs2)C1=O (stereo not given)
  0.38	-1
58. Cc1ccc(C)c(N2C(=O)c3cc(N4CCOCC4)c([N+](=O)[O-])cc3C2=O)c1
  0.85	-0.19
59. CCOc1ncccc1C(=O)OCC(=O)c1c(N)n(C)c(=O)n(C)c1=O
  1.5	0.58
60. N#Cc1c(N)nc2c(c1-c1ccncc1)CCCCC2
  0.28	0.52
61. N#Cc1c(NC(=O)C(=O)NCCCN2CCOCC2)sc2c1CCCC2
  1.1	-0.34
62. COc1cccc(/C=C/C(=O)OCC(=O)NCC2CCCO2)c1OC (stereo not given)
  0.12	0.81
63. CCC(Oc1nc2ccccc2nc1-c1ccccc1NC(C)=O)C(=O)c1ccccc1 (stereo not given)
  0.45	1.7
64. C#Cc1ccc([C@@H]2C=C(C(=O)NC3CC3)O[C@H](OCCCCO)C2)cc1
  0.96	-0.77
65. COc1cc(/C=C(/C#N)c2nc3ccccc3[nH]2)ccc1Oc1ncccc1[N+](=O)[O-]
  0.04	0.01
66. COC(=O)/C=C1\NCCSC1=O
  3.4	-0.28
67. COCCN1C(=O)N[C@@H](c2cccs2)C(C(=O)OC)=C1C
  0.7	0.49
68. Cc1nonc1C1CCCN1Cc1cn[nH]c1-c1ccc(-c2ccccc2)cc1 (stereo not given)
  0.13	0.19
69. O=C(CCCn1c(SCc2ccccc2F)nc2ccccc2c1=O)NCC1CCCO1 (stereo not given)
  0.44	0.05
70. O=C(Cn1nc(-c2ccc3c(c2)OCCO3)ccc1=O)Nc1ccc(-n2cnnn2)cc1
  1.1	-1.2

Compounds from the list above with a nitro group on carbon, in the order listed:
Each structure is followed by: KCNQ2 pot	KCNQ2 pot baseline
11. COc1cccc(/C=N/Nc2ccc([N+](=O)[O-])cc2)c1O
  1	1.8
37. NC(=O)CC(NC(=O)c1ccc(Br)cc1)c1ccc(N2CCC(Cc3ccccc3)CC2)c([N+](=O)[O-])c1 (stereo not given)
  2.4	-0.37
46. CCOC(=O)c1ccc(NC(=O)c2cccc(C)c2[N+](=O)[O-])cc1
  0.58	-0.74
49. O=C(NC(Nc1nc2ccc([N+](=O)[O-])cc2s1)(C(F)(F)F)C(F)(F)F)c1cccnc1
  1.3	0.95
58. Cc1ccc(C)c(N2C(=O)c3cc(N4CCOCC4)c([N+](=O)[O-])cc3C2=O)c1
  0.85	-0.19
65. COc1cc(/C=C(/C#N)c2nc3ccccc3[nH]2)ccc1Oc1ncccc1[N+](=O)[O-]
  0.04	0.01

Next section:
Each structure is followed by: KCNQ2 pot	KCNQ2 pot baseline
71. Cc1ccc(N/N=C(/Sc2nnnn2-c2ccccc2)C(=O)c2ccccc2)cc1
  0.07	-1.7
72. Cc1cc(-n2c(=O)c(C#N)cc3c(=O)n4ccccc4nc32)no1
  1.1	-0.29
73. COc1ccc(/C=N/Nc2ncnc3c2[nH]c2ccc(C)cc23)c(OC)c1OC
  1.3	0.21
74. COc1ccccc1N(C)S(=O)(=O)c1ccc(C(=O)Nc2ccc(N3CCOCC3)cc2)cc1
  1.9	-0.71
75. CCN(CC)C(=O)CSc1ncnc2c1cnn2-c1ccccc1
  2.6	-4.1
76. COc1cc2c(cc1OC)C(C)N(C(=O)[C@@H](NC(=O)c1ccccc1)C(C)C)CC2 (stereo not given in full)
  0.39	1.1
77. Cc1ccccc1NC(=O)c1nn(C)c(C(=O)Nc2ccccc2C)c1[N+](=O)[O-]
  1.3	0.12
78. CCc1ccccc1NC(=O)COC(=O)c1cccs1
  1.9	1.4
79. O=C(CC(Cc1ccccc1)C(=O)O)Nc1ccc(Cl)c(Cl)c1 (stereo not given)
  0.81	0.53
80. COCCNC(=O)/C(C#N)=C/c1cc(Br)c(O)c(OC)c1
  0.72	0.73
81. CN1CCN(C(=O)C2CCC(C)(C(=O)O)C2(C)C)CC1 (stereo not given)
  1	0.75
82. CNC(=O)C1(C)C=CCN1C(=O)c1ccccc1 (stereo not given)
  0.77	-0.76
83. O=Cc1ccc(Sc2nnc(-c3ccccc3)o2)c([N+](=O)[O-])c1
  2.4	-2.1
84. COc1ccccc1CNC(=O)Cn1c(=O)c2cccn2c2cccnc21
  0.07	-1.6
85. CCOC(=O)c1cnc2c(-c3cccc(Br)c3)cnn2c1C
  0.26	0.57
86. O=c1[nH]n2c(C(F)(F)F)cc(C3CC3)nc2c1N=Nc1ccccc1
  0.97	0.31
87. CN(C)CCNC(=S)Nc1ccccc1C(C)(C)C
  1.2	-1.1
88. CC12C(=O)N(c3ccccc3C(=O)O)C(=O)C1C1C=CC2C1 (stereo not given)
  0.36	0.65
89. CN(CC(=O)Nc1ccncc1)S(=O)(=O)c1ccc(Br)cc1
  1.7	-0.24
90. O=C(CCn1cccn1)Nc1ccc(-c2ccno2)cc1
  1.4	-0.05
91. NC(=O)C1CCN(Cc2nc3ccccc3c(=O)[nH]2)CC1
  0.52	0.66
92. O=C(CCNC(=O)c1ccc(Br)cc1)NCC1COc2ccccc2O1 (stereo not given)
  0.4	-0.57
93. CSc1nc(N)c2c(C)c(C)sc2n1
  0.05	-1.9
94. CCSc1nnc(N(CCC(=O)O)CCC(=O)O)s1
  0.14	-0.84
95. COc1ccc(CN(C(=O)/C=C/c2ccco2)C2CCS(=O)(=O)C2)cc1 (stereo not given)
  0.53	0.75
96. O=C(Nc1cc(S(=O)(=O)N2CCOCC2)ccc1N1CCOCC1)C1CCCO1 (stereo not given)
  1.5	-0.78
97. Cc1c(C(=O)O)cccc1-n1c(C)cc(C=O)c1C
  1.4	-0.69
98. Cc1ccc(CSCC(=O)Nc2ccccc2F)cc1
  0.21	2.4
99. Cc1[nH]c2ccccc2c1/C=N/NC(=O)CNC(=O)c1ccc2c(c1)OCCO2
  0.02	-2.2
100. CCOc1ccc(-n2c(=O)c3c(C)c(C(=O)N(C)C)sc3n(CC(=O)Nc3ccccc3F)c2=O)cc1
  0.03	-0.23
101. O=C(CN1CCN(c2ccc(Cl)cc2)CC1)NCc1ccccc1
  0.59	0.03
102. Cc1ccc(/C=N/N=C/c2ccc(C)cc2)cc1
  0.01	0.27
103. O=C(CCN1C(=O)c2ccccc2C1=O)N1CCN(c2ccccc2)CC1
  0.67	-0.39
104. COc1cccc(-n2cc(CNC(=O)C3CCC(=O)N(C4CC4)C3)cn2)c1 (stereo not given)
  0.86	1.4
105. COc1ccc(OC)c(NC(=S)N2CCC(C(O)(c3ccccc3)c3ccccc3)CC2)c1
  5.9*	-0.7*

7 structures from above, ordered by molecular weight, lowest first:
Each structure is followed by: KCNQ2 pot	KCNQ2 pot baseline
102. Cc1ccc(/C=N/N=C/c2ccc(C)cc2)cc1
  0.01	0.27
97. Cc1c(C(=O)O)cccc1-n1c(C)cc(C=O)c1C
  1.4	-0.69
98. Cc1ccc(CSCC(=O)Nc2ccccc2F)cc1
  0.21	2.4
101. O=C(CN1CCN(c2ccc(Cl)cc2)CC1)NCc1ccccc1
  0.59	0.03
103. O=C(CCN1C(=O)c2ccccc2C1=O)N1CCN(c2ccccc2)CC1
  0.67	-0.39
99. Cc1[nH]c2ccccc2c1/C=N/NC(=O)CNC(=O)c1ccc2c(c1)OCCO2
  0.02	-2.2
105. COc1ccc(OC)c(NC(=S)N2CCC(C(O)(c3ccccc3)c3ccccc3)CC2)c1
  5.9*	-0.7*
